# Source: PubChem
# MLL AF4-AF9 inh: inhibitors of AF4 peptide binding to AF9, primary screen, biochemical, AlphaScreen, biotin-AF4 peptide, FLAG-AF9, single point; Protein AF-9 (Homo sapiens), P42568; inhibition, % at 10 µM; 0.47% of 350,000 active;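 active means every replicate reaching a set inhibition limit, whatever the replicate mean, cut at about 25% in these data; inconclusive means mean inhibition reaches that limit but some replicates miss it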;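 further: 0% = plate neutral control median and 100% = total signal loss; the record names both 10 and 1 µM as test concentration; the first replicate is given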
# Vif A3G: inhibitors of Vif binding to APOBEC3G peptide, primary screen, biochemical, TR-FRET, GST-Vif 1-94, biotin-A3G peptide, dose response retest (AID 1117319); TR-FRET GST-Vif / biotin-A3G peptide binding; higher % means a stronger effect; test concentration not given here; strong numbers were not always called active; one-dose inhibition, %; IC50 in µM for titrated hits; 0.57% of 260,000 active;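 active means above the screen mean plus three standard deviations and confirmed in dose response; inconclusive means results disagree or hit not tested in dose response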;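 further: Vif residues 1-94 fused to GST binding biotinylated APOBEC3G peptide 110-148; 0% = full assay without inhibitor and 100% = GST in place of GST-Vif; retest series ran down from 100 µM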
# RanGTP-Imp inh: inhibitors of RanGTP-importin-beta interaction, primary screen, biochemical, FRET, CFP-Ran, YFP-importin-beta, homogeneous; Ran GTPase (GTP-bound) - importin-beta complex; cell-free CFP-Ran/YFP-importin-beta FRET ratio; inhibition, % (concentration not given with the values); 1.1% of 300,000 active; AID 2216, 2009;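 active means most replicates above 15%; inconclusive means exactly half above 15%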;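 further: 0% = DMSO wells and 100% = Ran loaded with GDP instead of GTP; wells of about 40 µL received 100 nL stock; the first replicate is given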
# Ecoli growth: E. coli growth inhibition, primary screen, OD600 | OD600 absorbance (test concentration not listed) | 0.21% of 330,000 active | AID 1053175, 2014 | Escherichia coli growth, 23 h; active compounds read low;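 active means OD600 absorbance below the run mean of sample wells minus 3.6 SD, in any replicate, cut at about 0.56 in these data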;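 further: stock transfer was 300 nL into about 60 µL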
# HNF4A DNA FP: change in binding of human HNF4A to DNA, primary screen, biochemical, fluorescence polarization, FITC-DNA; Hepatocyte nuclear factor 4-alpha (Homo sapiens), P41235; 1 h; activity change, % at 10 µM; 0.3% of 360,000 active; AID 1224865, 2016; in the data active means activity change above about 30%, passing the limit was not always enough;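 further: controls were the assay level and a saturating level of protein; the project sought stronger binding though the title names inhibitors; some compounds called inactive have numbers as strong as hits; positive values seem to mean higher polarization but the record does not say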
# Target sequence (P41235 whole entry, looked up): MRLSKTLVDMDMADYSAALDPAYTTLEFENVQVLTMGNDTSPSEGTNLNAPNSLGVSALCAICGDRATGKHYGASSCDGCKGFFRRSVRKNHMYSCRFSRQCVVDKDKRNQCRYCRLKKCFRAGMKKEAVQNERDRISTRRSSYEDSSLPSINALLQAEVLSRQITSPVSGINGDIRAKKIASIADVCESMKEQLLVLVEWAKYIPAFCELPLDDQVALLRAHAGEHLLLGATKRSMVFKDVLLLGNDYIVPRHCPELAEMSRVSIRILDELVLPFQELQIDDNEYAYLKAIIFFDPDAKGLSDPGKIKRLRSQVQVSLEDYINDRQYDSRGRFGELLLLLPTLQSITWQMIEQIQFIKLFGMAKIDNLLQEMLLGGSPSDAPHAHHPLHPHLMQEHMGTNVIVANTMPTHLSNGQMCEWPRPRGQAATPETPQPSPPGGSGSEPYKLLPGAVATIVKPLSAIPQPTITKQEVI
# FGF22 binding: binders of human FGF22 protein, primary screen, FGF22 synaptogenesis inhibitor project, biophysical, thermal shift, single point. Fibroblast growth factor 22 (Homo sapiens), Q9HCT0. recombinant FGF22 thermal shift, SYPRO orange fluorescence; percent of sucrose octasulfate shift, DMSO zero. calls only at 9.99 µM. 1.5% of 340,000 active. AID 651658, 2012;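 active means melting point raised past a set limit in the mean and every replicate; inconclusive means no clear call; three in four hits are not shown here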
# Target sequence (Q9HCT0 whole entry, looked up): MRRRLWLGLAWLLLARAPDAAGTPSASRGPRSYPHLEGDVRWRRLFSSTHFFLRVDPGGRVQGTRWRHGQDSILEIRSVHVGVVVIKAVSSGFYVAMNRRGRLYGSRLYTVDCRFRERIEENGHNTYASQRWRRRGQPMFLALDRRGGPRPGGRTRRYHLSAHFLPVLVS
# UCH37 inh: inhibitors of human UCH37 deubiquitinase, primary screen, biochemical, Ub-AMC cleavage, fluorescence; Ubiquitin carboxyl-terminal hydrolase isozyme L5 (Homo sapiens), Q9Y5K5; purified proteasome/UCH37; inhibition, % (no concentration beside the values); 0.33% of 330,000 active; AID 588478, 2011;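 active means mean of two replicates above 20%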;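 further: 0% = compound-free wells with enzyme and 100% = wells lacking proteasome; stock transfer was 100 nL into about 20 µL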
# Target sequence (Q9Y5K5 whole entry, looked up): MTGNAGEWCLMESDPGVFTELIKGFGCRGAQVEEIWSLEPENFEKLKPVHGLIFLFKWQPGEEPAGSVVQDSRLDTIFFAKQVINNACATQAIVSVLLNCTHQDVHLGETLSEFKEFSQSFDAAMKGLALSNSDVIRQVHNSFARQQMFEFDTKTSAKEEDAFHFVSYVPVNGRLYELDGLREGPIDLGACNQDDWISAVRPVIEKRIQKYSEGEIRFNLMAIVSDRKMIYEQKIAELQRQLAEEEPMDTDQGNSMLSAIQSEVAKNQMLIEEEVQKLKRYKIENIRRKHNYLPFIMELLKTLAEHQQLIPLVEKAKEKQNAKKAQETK
#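 Assay system: Proteasome-bound UCH37. Buffer or medium: pH 7.4 Tris-HCl (50 mM) with ovalbumin, ATP-MgCl2, DTT. Incubation: 30 min preincubation with enzyme, 25 min cleavage at room temperature. Measured by: fluorescence, ex 355 nm, em 460 nm. Read-out basis: percent inhibition. Control set: wells without proteasome as full block, compound-free enzyme plus substrate as uninhibited.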
# Active calls of the source: *; i = inactive; ? = inconclusive; nt = no result given; & = joins results of further samples.
SMILES,MLL AF4-AF9 inh,Vif A3G,RanGTP-Imp inh,Ecoli growth,HNF4A DNA FP,FGF22 binding,UCH37 inh
O=S(=O)(Nc1ccc(Oc2ncccn2)c(Cl)c1)c1ccc(F)cc1,nt,15.2%,1.5,nt,0.1,nt,nt
O=C(Cc1ccccc1)NNC(=O)Nc1cccc(Cl)c1,nt,8.4%,6.6,0.712,4.7,nt,2.5
Cc1cccc(C2c3[nH]c4ccccc4c3CCN2C(=O)CN2CCOC2=O)n1 (stereo not drawn),0.2,-3.1%,-1.3,0.694,1.9,i,0.5
COc1cccc(-c2nnc(SCC(=O)Nc3cc(C)on3)n2C)c1,-28.7,-5.6%,?,0.653,-1.4,nt,0.5
O=C(NC1CCS(=O)(=O)C1)c1cccs1 (stereo not drawn),-1.6,nt,?,0.651,0.4,i,0.2
COc1ccc(-c2cc(C3CCN(C(=O)OC(C)(C)C)CC3)[nH]n2)cc1,-0.2,2.5%,-0.8,0.691,-0.6,i,1.7
C[C@@H]1CN([C@@H](C)CO)C(=O)CCCn2cc(nn2)CO[C@H]1CN(C)C(=O)CCCN(C)C,-4.6&-2.0,3.8%,nt,nt,-3.3,i,nt
NS(=O)(=O)c1ccc(NC(=O)/C=C/c2ccco2)cc1,-3.3,30.0%,-2.0,0.674,-19.6,i,7.3
CCOC(=O)C1CCCN(C(=O)CN2C(=O)COc3ccc(C(C)(C)C)cc32)C1 (stereo not drawn),2.1,-0.2%,-1.8,0.654,-1.3,i,5.0
CCc1sc(NC(=O)CN2CCC(C(N)=O)CC2)nc1-c1ccccc1,-0.5,nt,-0.5,0.689,1.5,i,2.1
CCn1c(Cc2ccccc2)nnc1SCC(=O)Nc1ccc2c(c1)OCO2,nt,?,1.3,0.718,-3.1,nt,-5.6
COc1ccc2c(c1)c1nc(SCC(C)C)n(CCO)c(=O)c1n2C,0.5,-2.1%,?,0.75,4.0,i,-26.7
COc1ccc(C2=NOC(Cn3nc(-c4ccccc4)cc3C(=O)O)C2)cc1 (stereo not drawn),8.6,nt,nt,0.675,5.9,i,0.8
Cc1cc(C)n(-c2ccc(C(C)C)cc2)c(=O)c1C#N,-1.7,7.3%,0.8,0.707,-8.7,i,-10.8
O=C(CSc1ccc2nnc(-c3cccnc3)n2n1)Nc1cccc(F)c1,-6.8,-67.2%,-1.8,0.734,2.6,i,3.2
Cc1nc2ccccc2c(=O)n1NC(=O)c1ccccc1Cl,nt,8.6%,-0.1,0.697,2.0,nt,5.2
O=C(COC(=O)COc1ccc2c(c1)CCC2)Nc1ccccc1,-1.2,nt,nt,0.65,-0.5,i,4.7
CN(CC1CCCO1)S(=O)(=O)c1ccc(C(=O)Nc2ccc(F)cc2)cc1 (stereo not drawn),1.7,1.6%,?,0.71,3.6,i,1.1
CCc1ccc(N(CC(=O)NCCc2ccccc2)C(=O)CCC(=O)Nc2ccccn2)cc1,0.3,-2.8%,-4.2,0.652,3.3,i,5.0
O=S(=O)(CCNCCc1ccccc1)NCc1ccccc1,0.2,nt,nt,nt,2.9,i,nt
COc1ccc(Cc2n[nH]c(=S)n2-c2cc(C)ccc2C)cc1OC,-5.6,nt,nt,nt,1.3,i,nt
CCN1CCN(CCNC(=O)c2ccc(CS(=O)c3ccc(Br)cc3)o2)CC1 (stereo not drawn),-0.5,nt,0.1,0.668,-1.4,i,2.3
CNC(=O)Cn1c(C)cc(=O)c2cccc(C)c21,-1.9,nt,2.6,0.705,0.8,i,3.1
COc1ccccc1NC(=O)C/C(N)=N/O,nt,0.2%,0.8,0.723,-2.1,nt,0.2
O=[N+]([O-])c1ccc2ncnc(Nc3ccc4c(c3)OCCO4)c2c1,-0.2,-1.5%,?,0.716,1.8,i,6.3
CC(C)CCNC(=O)CCn1nc(-c2ccc(Cl)cc2)ccc1=O,-0.1,-3.8%,0.1,0.694,3.0,i,3.2
CC1(C)CC(=O)C(C2=NC(C)(C)Cc3ccccc32)=C(O)C1,-0.9,4.1%,8.9,0.679,4.5,nt,2.2
COc1ccc(NC(=S)N2CCN(c3ccccn3)CC2)cc1OC,nt,19.2%,3.0,0.696,1.6,nt,1.7
CCCn1c(SCC(=O)Nc2cccc(C)n2)nnc1C(C)C,-2.4,-11.7%,-3.3,0.678,-1.2,i,0.4
COCc1ccc(C(=O)N2CCCC(N(C)CCc3ccc(OC)c(OC)c3)C2)s1 (stereo not drawn),1.4,nt,?,0.726,3.8,i,3.4
Cn1c(-c2ccccc2)nc2cnccc21,-12.6,-2.5%,0.7,0.688,-2.1,i,1.3
COC(=O)c1cccc(NC2CC(=O)N(c3ccc(OC)c(OC)c3)C2=O)c1 (stereo not drawn),nt,-1.5%,0.3,0.658,0.2,nt,-6.9
C=CCOC(=O)C1=C[C@H](C2CCCCC2)[C@@H](CCCO)[C@H](OCC)O1,5.4,nt,0.6,0.775,-1.4,i,-0.7
Nc1ccnn1Cc1ccncc1,-0.7,4.2%,0.8,0.698,-1.5,i,0.6
COc1ccc(S(=O)(=O)N(C)c2ccc(C(=O)NCCC(C)C)cc2)cc1,-14.4,2.4%,-0.2,0.719,-4.5,i,1.0
C/C(=N\OC(=O)c1ccc(Cl)c(Cl)c1)c1sc(C)nc1C,nt,2.7%,2.1,nt,-0.1,nt,nt
O=C(CSc1nnnn1-c1ccccc1)Nc1nsc(-c2ccccc2)n1,nt,67.3%,-3.3,0.665,13.8,nt,2.4
COc1ccccc1-c1nnc2sc(COc3ccc(Cl)cc3Cl)nn12,nt,-11.2%,-1.6,0.7,0.5,nt,-6.8
O=C(CCCc1nc2ccccc2s1)N1CCN(S(=O)(=O)c2cccs2)CC1,nt,-8.0%,-0.9,0.68,-2.5,nt,-0.1
O=C(c1cccc(Br)c1)c1conc1C(=O)c1ccco1,0.2,nt,-0.7,0.691,-4.0,i,5.6
COC(=O)c1ccc(CSc2nc3ccccc3s2)o1,2.7,-3.4%,1.1,0.667,4.3,i,1.4
COC(=O)c1ccc2nc(-c3ccc(C#N)cc3)c(Cc3cccc(Cl)c3)n2c1,-1.0,nt,nt,nt,28.0,i,nt
CCCCOc1cccc(C(=O)Nc2ccc(S(=O)(=O)Nc3cc(C)on3)cc2)c1,-5.1,nt,-0.1,0.681,2.4,i,2.1
CCN1C(=O)C(O)(CC(=O)c2ccc3c(c2)OCCO3)c2ccccc21 (stereo not drawn),-1.6,1.4%,-0.2,0.688,2.3,i,4.8
COc1ccccc1C(=O)N/C(=C\c1ccc(Br)cc1)C(=O)N1CCCC1,1.3,-0.2%,4.4,0.699,-2.7,i,2.2
CC(=O)c1ccc(S(=O)(=O)Nc2ccc(C(=O)N(C)CC(=O)Nc3cccc(C)c3C)cc2)cc1,-1.7,nt,nt,0.693,-4.5,i,2.0
COc1cccc(OC)c1OCCNCC1COc2ccccc2O1 (stereo not drawn),1.0,nt,4.0,0.675,-1.8,i,1.3
CC(=O)NC(CC(=O)c1ccc([N+](=O)[O-])cc1)C(Cl)(Cl)Cl (stereo not drawn),2.7,0.9%,-5.6,0.638,0.2,i,2.4

# Next section; it opens with the 2 that closed the last part.
SMILES,MLL AF4-AF9 inh,Vif A3G,RanGTP-Imp inh,Ecoli growth,HNF4A DNA FP,FGF22 binding,UCH37 inh
COc1cccc(OC)c1OCCNCC1COc2ccccc2O1 (stereo not drawn),1.0,nt,4.0,0.675,-1.8,i,1.3
CC(=O)NC(CC(=O)c1ccc([N+](=O)[O-])cc1)C(Cl)(Cl)Cl (stereo not drawn),2.7,0.9%,-5.6,0.638,0.2,i,2.4
CCCc1nnc(SCC(=O)N2CCCC2)n1CC1CCCO1 (stereo not drawn),nt,-7.2%,-0.1,0.705,3.9,nt,1.1
Nc1nc(NCCOCCO)nc(NCC2CCCO2)c1[N+](=O)[O-] (stereo not drawn),-2.1,-7.2%,-3.6,0.63,4.1,i,13.8
COc1ccc(-c2cc(C(F)(F)F)nc(N3CCOCC3)n2)cc1OC,nt,5.3%,-5.2,0.697,-6.4,nt,-50.1
CCOC(=O)C1=C(CN2CCN(C(=O)OCC)CC2)NC(=O)NC1c1ccc2c(c1)OCO2 (stereo not drawn),-1.1,-3.6%,-3.2,0.693,-2.1,i,0.6
COc1cc(CN(C)Cc2nc3cc(C(F)(F)F)ccc3c(=O)[nH]2)ccc1OC(F)F,-1.6,nt,-1.9,0.676,4.9,i,-0.5
COc1ccc(S(=O)(=O)N2CCOC2CNC(=O)C(=O)NCCc2ccccc2)cc1C (stereo not drawn),-0.9,nt,4.5,0.805,3.0,i,2.2
CCN(CC)S(=O)(=O)c1ccc(N(C)C)c(NC(=O)CSCc2c(C)noc2C)c1,0.7,1.8%,1.5,0.694,-3.2,i,0.7
CCOc1ccc(NC(=S)Nc2ccc(F)cc2)cc1,-1.5,nt,-5.1,0.695,6.2,i,-2.3
CCc1nc2ccccc2c(C(=O)OCC(=O)C(C)(C)C)c1C,-7.0,25.2%,?,0.666,2.0,i,1.6
CCN(CC)S(=O)(=O)c1ccc(C(=O)NCC(c2ccc(OC)cc2)N2CCOCC2)cc1 (stereo not drawn),-0.7,4.8%,-4.0,0.699,-1.5,i,-0.3
COc1ccc(CCNS(=O)(=O)c2ccc3c(c2)CCN3C(=O)CCC(=O)O)cc1OC,nt,69.1%&-2.3%,-3.0,0.714,1.8,nt,2.6
O=C(CC1Nc2ccccc2NC1=O)NCc1cccnc1 (stereo not drawn),nt,-3.8%,2.3,0.72,2.7,nt,-10.2
CCN(C(=O)CSc1nc2ccc(O)cc2c(=O)n1-c1ccc(OC)c(OC)c1)C1CCS(=O)(=O)C1 (stereo not drawn),-0.2,-11.7%,nt,0.696,5.9,i,-8.1
CCOC(=O)C1=CCC(c2cccs2)N(S(=O)(=O)c2ccc(C)cc2)C1 (stereo not drawn),-1.7,nt,nt,nt,1.5,i,nt
Cc1c(/C(O)=C2/C(=O)C(=O)N(CCN(C)C)C2c2ccc(C(C)C)cc2)cnn1-c1ccccc1 (stereo not drawn),nt,-1.3%,3.6,0.669,0.9,i,6.5
Cc1oc(-c2ccccc2F)nc1CS(=O)CC(=O)NC1CC1 (stereo not drawn),-0.2,-6.5%,-0.1,0.677,-4.4,i,1.8
C=CCSc1ncnc2c1oc1nc3c(cc12)COC(C)(C)C3,-0.2,-12.7%,2.2,0.724,2.0,i,1.1
COc1ccc(CCNC(=O)NCCc2c[nH]c3ccccc23)cc1OC,2.4,-1.6%,-2.0,0.655,-0.2,i,2.2
CC(/C=N/NC(=O)c1nnn(-c2nonc2N)c1CN1CCCCC1)=C\c1ccccc1,2.0,nt,?,nt,2.5,i,nt
Cc1cc(C(=O)NCCCN(C)C)c2ccccc2n1,-1.0,nt,2.9,0.725,-2.4,i,9.0
COc1ccc(CNC(=O)Cn2c(=O)n(CC(=O)N3CCCCC3)c(=O)c3sccc32)cc1,3.0,nt,?,0.666,2.0,i,1.8

# The list is partial, so the mix of outcomes need not match the whole.
